Bioassay records deposited in PubChem BioAssay by several laboratories.
Env fusion inh – HIV envelope-mediated fusion inhibition | inhibition, % at 12.3 µM | AID 651610 | HeLa-JRFL Env/CEM21 cell fusion, luciferase | actives 1.1% (n = 360,000);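 active = mean replicate inhibition score of at least 50 and every replicate individually at or above 50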;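 note: 0% = plate neutral controls and 100% = maraviroc near 300 nM; one replicate is shown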
eIF4H FP inh – inhibitors of RNA binding by human eIF4H; inhibition, % at 35 µM; eIF4H fluorescence polarization binding assay; Q15056; actives 0.94% (n = 290,000);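 active = 50% or more with normal probe brightness, or confirmed in later tests; about a fifth of its hits are not listed in these tables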;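 note: calls also rest on retests at 20 µM and on dose response follow-up; 0% = protein and probe with vehicle and 100% = probe without protein; strong numbers were not always called active; many hits fall short of the cut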
PABP polyA inh – PABP-poly(A) binding inhibition; actives 1% (n = 290,000); P11940; inhibition, % at 35 µM; PABP-poly(A) RNA binding, fluorescence polarization;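 active = 50% or more with normal probe brightness, or confirmed in later tests; about a fifth of its hits are not listed in these tables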;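 note: calls also rest on retests at 20 µM and on dose response follow-up; controls were probe without protein and protein plus probe with vehicle; some compounds called inactive have numbers as strong as hits; many hits fall short of the cut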
MT1-MMP act inh – MT1-MMP (human) activation inhibition; actives 0.061% (n = 360,000); AID 651647; HT1080 RFP-PRO-GFP cells, GFP/RFP ratio fluorescence, overnight; percent of plate control window, DMSO zero; P50281; GFP/RFP ratio change, % at 20 µM;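 active = GFP/RFP ratio change of at least 30% with cell ATP level not reduced by more than half and red fluorescence within 50% of control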; note: strong numbers were not always called active
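Assay system: HT1080 RFP-PRO-GFP cells. Benchmarks: DMSO vehicle wells and RFP-L50D-GFP reporter cell wells. Times: overnight cell settling, then overnight compound exposure, 37 °C, 5% CO2. Compound: 20 µM single dose, 1% DMSO. Read-out basis: GFP/RFP fluorescence ratio.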
Rce1 inh – blocks yeast Ras-converting enzyme; calls only; actives 0.27% (n = 290,000); Q03530; yeast membranes, quenched prenylated peptide cleavage fluorescence; AID 2563;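 active = fall in fluorescence gain of 50% or more versus controls, with final raw signal at or below 3038400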;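 note: plate controls were neutral control wells for no effect and wells lacking membranes for full effect; tested at 10 µM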
Target sequence (Q03530 whole entry, looked up): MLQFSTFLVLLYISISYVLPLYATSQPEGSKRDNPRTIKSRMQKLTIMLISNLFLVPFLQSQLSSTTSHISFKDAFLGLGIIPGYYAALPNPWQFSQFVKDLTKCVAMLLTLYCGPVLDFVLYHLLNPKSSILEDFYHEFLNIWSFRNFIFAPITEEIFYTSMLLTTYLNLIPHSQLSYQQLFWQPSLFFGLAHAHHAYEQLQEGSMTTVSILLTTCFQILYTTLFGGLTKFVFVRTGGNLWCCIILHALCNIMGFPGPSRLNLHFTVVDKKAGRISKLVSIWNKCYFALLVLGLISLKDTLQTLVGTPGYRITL
CSC inhib – blocks cancer stem cells. cancer stem cell-like cells viability, luminescence. inhibition, % at 7.5 µM. actives 1.1% (n = 300,000). AID 2717;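 active = mean at 75% or more and at least half the replicates too; tested in HMLE shEcad cells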;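 note: 0% = median of negative and 100% = median of positive control wells; the first replicate is given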
UUG fidelity – modulators of start codon recognition fidelity in yeast | activity score, % at 18.7 µM | actives 0.13% (n = 350,000) | S. cerevisiae UUG-firefly luciferase reporter, luminescence/redox ratio | AID 602363;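 active = replicate mean at a twofold rise or more, about +100% in these data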;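 note: firefly luciferase made from a UUG start codon reports start codon fidelity; reporter light over untreated wells divided by growth signal over untreated wells; some hits fall short of that in this replicate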
MT1-MMP act inh RFP – second read-out of MT1-MMP act inh, no call of its own (marks repeat the call); RFP signal change, %; measured here: RFP expression control read;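 0 = vehicle wells; hits needed this value within 50% of zero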
* = called active by the depositor; i = inactive; . = no result given; & = joins results of further samples. Not all compounds are listed; rates above refer to the full screens.

Below each compound – Env fusion inh	eIF4H FP inh	PABP polyA inh	MT1-MMP act inh	MT1-MMP act inh RFP	Rce1 inh	CSC inhib	UUG fidelity
- COc1ccc(-c2c(C)nc(N)nc2-c2ccc(OCc3ccc(C)cc3)cc2O)cc1OC
 : .	-0.3	1.4	-6.6	-3.3	i	8.3	.
- COc1nccnc1NS(=O)(=O)c1ccc(NC(=S)NC(=O)c2ccccc2)cc1
 : 16.5	0.3	5.6	4.3	5.8	i	3.0	-3.6
- COc1ccc(/C=C/C(=O)c2ccc3c4c(cccc24)CC3)cc1OC
 : -6.3	7.6	-2.5	1.4	-0.2	i	40.0	.
- O=S(=O)(c1ccc(OCc2nc3ccccc3s2)c(Cl)c1)N1CCOCC1
 : .	-0.5	9.9	3.3	-4.1	i	4.7	-6.1
- Cc1nc(-c2ccc(S(=O)(=O)NCc3ccccn3)s2)cs1
 : 2.6	-3.3	-1.2	1.1	-6.9	i	-15.5	-30.0
- N/C(CCN1CCCCC1)=N/O
 : -18.9	4.4	3.8	-4.7	-0.7	i	-9.4	-20.3
- COc1cc(C(=O)OC(C)C(=O)NCC2CCCCC2)cc(NC(=O)c2ccco2)c1OC (stereo not given)
 : -47.0	-3.2	3.2	-4.8	-5.1	i	-15.0	13.7
- Cc1cc(C(=O)NCC(=O)OCC(=O)N(C)C2CCCCC2)ccc1[N+](=O)[O-]
 : -37.0	1.9	-22.5	0.2	2.8	i	-14.9	.
- CCc1ccc(S(=O)(=O)N2CCN(c3ncccn3)CC2)cc1
 : 8.2	-6.8	3.0	-1.3	-3.4	i	-12.2	-19.0
- Cc1nc2scc(C)n2c(=O)c1S(=O)(=O)N1CCN(c2ccccn2)CC1
 : 7.0	-1.8	-7.4	2.7	3.8	i	0.1	-1.6
- C#CC(C)OC(=O)Nc1cnccc1C(F)(F)F (stereo not given)
 : 3.2	10.6	3.7	2.5	0.9	i	3.3	-7.1
- Cc1ccc2oc(C(=O)NCc3ncc(C)[nH]3)c(C)c2c1
 : 13.0	-10.3	-6.4	1.9	-8.5	i	38.7	-20.3
- Cc1ccsc1/C=N/NC(=O)c1cccc(S(=O)(=O)Nc2ccccc2Cl)c1
 : -6.3	-11.4	-10.2	2.3	1.0	i	20.5	.
- Cc1ccc(-c2csc(NC(=O)CSc3nc(C)cc(=O)[nH]3)n2)cc1
 : -2.5	-2.2	10.3	.	.	i	18.5	.
- C/C(=C/C(=O)N1CCN(C)CC1)C(=O)O
 : -11.8	9.9	6.9	0.1	-1.0	i	4.3	.
- CC(C)CCn1cnc2c(cnn2-c2ccc(Cl)cc2)c1=O
 : .	-5.2	8.0	-1.0	-11.6	i	21.1	-14.5
- Cc1ccccc1C(=O)NCCN1CCOCC1
 : 0.4	2.1	7.1	1.7	6.1	i	-10.7	.
- O=C(CN1CCN(c2ccc(O)cc2)CC1)Nc1cc(S(=O)(=O)N2CCCC2)ccc1Cl
 : 23.2	17.1	4.7	-2.3	-5.6	i	44.1	.
- CCOC(=O)c1cc(OC(=O)Cc2ccc(OC)c(S(=O)(=O)N3CCOCC3)c2)cc(C(=O)OCC)c1
 : -38.5	.	.	-3.0	0.3	.	.	-11.7
- O=C(NCc1cccnc1)c1ccc(-c2ccc(Cl)cc2)o1
 : 7.9	-1.6	20.5	-0.6	-6.3	i	12.9	.
- COc1ccc(C2C(=O)N(C3CCCCC3)CC(=O)N2Cc2ccc3c(c2)OCO3)cc1 (stereo not given)
 : .	10.3	-4.1	-0.6	-3.8	i	.	-3.0
- COCc1cccc(-c2csc(C(C)(O)c3cccc(OC)c3)n2)c1 (stereo not given)
 : 30.9	.	.	-10.6	-21.3	.	.	-6.3
- CCCCn1nnnc1SCC(=O)Nc1cccc(C)c1
 : 11.2	-5.8	2.4	6.5	3.9	i	-16.0	-13.4
- CCOC(=O)c1c(NC(=O)C(F)(OC)C(F)(F)F)sc(C(=O)N2CCCCC2)c1C (stereo not given)
 : -127.9	2.7	-1.7	-3.0	-1.9	i	-9.5	3.4
- Cc1ccc(S(=O)(=O)NCC(=O)N(CC(=O)NCc2ccco2)Cc2ccc3c(c2)OCO3)cc1
 : .	7.5	11.3	-4.7	1.1	i	-7.2	-12.9
- C=CCN1C=CC(=O)[C@@H](OC(=O)Nc2ccc(Br)cc2)[C@H]1c1ccccc1Br
 : -1.2	.	.	0.8	1.1	.	.	13.1
- O=C1NC(=O)/C(=C\c2ccccc2OCc2ccc([N+](=O)[O-])cc2)N1
 : 19.7	15.6	-5.1	-0.9	-5.0	i	-4.4	-16.0
- C=C(C)CN(CC)C(=O)CSc1ccc(S(=O)(=O)N2CCN(C)CC2)cn1
 : 5.0	.	.	-0.4	2.9	.	.	-15.2
- COc1ccc(C(=O)N/N=C/c2ccc(OC)c(COc3ccccc3)c2)cc1
 : 21.0	-4.1	0.4	1.4	-2.6	i	8.6	-14.8
- Cc1ccc(OCC(=O)Nc2ccc3c(c2)C(=O)NC3=O)c(C)c1
 : 0.1	1.8	6.2	1.3	1.8	i	-2.9	-7.3
- O=C(NCC(c1ccco1)N1CCCC1)c1cn(Cc2ccccc2)nc1-c1ccccc1 (stereo not given)
 : 0.7	.	.	2.0	4.5	.	0.4	0.3
- COc1cccc(/C=N/NC(=O)C(C)Cn2cnc3ccccc32)c1 (stereo not given)
 : 22.0	7.2	-7.0	2.0	-2.1	i	-3.4	-29.7
- O=C(N=C1SC2CS(=O)(=O)CC2N1CCc1ccc(F)cc1)C1CCCCC1 (stereo not given)
 : 6.0	-4.0	5.2	-0.8	-1.0	i	-10.4	0.3
- Cc1ccc(S(=O)(=O)N2CCOCC2)cc1C(=O)Nc1cccc(C(=O)NC2CC2)c1
 : 3.8	.	.	-0.8	3.6	.	.	6.2
- CS(=O)(=O)c1ccc(S(=O)CC(=O)OCc2ccccc2)c([N+](=O)[O-])c1 (stereo not given)
 : -175.0	-10.8	-10.3	-4.2	-10.0	.	.	.
- Cn1c(=N)n(CC(=O)c2ccc(Br)cc2)c2ccccc21
 : -218.6	.	.	4.2	5.1	i	10.3	.
- c1ccc(-c2ccc3cnccc3n2)cc1
 : -85.4	.	.	2.2	2.0	.	.	-14.0
- CN1CCCC(CC2Oc3ccccc3Sc3ccccc32)C1 (stereo not given)
 : .	-7.7	-7.7	-4.9	-5.7	i	.	1.8
- COc1ccc(-n2c(N)c(Br)c(=O)[nH]c2=O)cc1
 : .	-0.7	-17.6	8.5	6.2	i	-3.8	-7.3
- Cn1c(CCNC(=O)c2ccc(Cl)cc2)n[nH]c1=S
 : .	-3.5	3.9	6.5	4.0	i	-2.4	-4.7
- O=C(CN1C(=O)NC2(CCCC2)C1=O)Nc1nc2ccccc2s1
 : -1.9	.	.	4.0	0.4	i	6.4	.
- COc1ccc([C@H]2C[C@H](O)[C@@H](n3cc(C4CC4)nn3)CN2Cc2cccs2)cc1
 : 23.6	.	.	3.0	0.2	.	.	-7.5
- CN(Cc1ccccc1)C(=O)c1ccc2sc([C@@H]3O[C@H](CO)[C@H](O)[C@H](O)[C@H]3O)nc2c1
 : -2.0	.	.	-0.1	3.4	.	.	-21.3
- COC(=O)c1ccc(S(=O)(=O)c2ccccc2)c(N)c1
 : -16.4	-7.6	-8.8	11.6	4.2	i	-13.5	-12.6
- COc1ccc(OC)c(S(=O)(=O)N2CCC(C(=O)N3CCN(Cc4ccccc4)CC3)CC2)c1
 : .	-3.5	2.4	7.8	-0.6	i	-15.4	-16.2
- COc1ccc(S(=O)(=O)CCC(=O)N2c3ccccc3CC2C)cc1 (stereo not given)
 : .	-6.8	-5.1	-1.1	-0.7	i	3.3	6.3
- Cc1[nH]n(-c2cccc([N+](=O)[O-])c2)c(=O)c1-c1ccccc1
 : 0.6	2.2	-6.8	1.5	-1.8	i	11.4	-30.4
- CN(CC(=O)N1CCN(Cc2ccccc2)CC1)S(=O)(=O)c1ccc(F)cc1
 : i	0.0	-8.0	-1.5	0.9	i	-8.4	-18.5
- Cc1onc(-c2ccccc2Cl)c1C(=O)Nc1ccc(Cl)cn1
 : 7.6	36.3	34.0	-4.9	0.4	i	-3.8	.
- CCCCNC(=O)[C@H]1C[C@H]1[C@@H](O)[C@H](CO)NC(=O)[C@H](Cc1ccccc1)NC(=O)OC(C)(C)C
 : .	-4.3	1.4	-0.2	6.0	i	3.4	4.6
- CCC(=O)N1CCc2nc(-c3ccccc3)sc2C1
 : -37.0	1.9	15.7	1.8	1.9	i	-12.4	0.8
- O=C(CN(c1ccc(Cl)c(C(F)(F)F)c1)S(=O)(=O)c1ccccc1)N/N=C/c1cccc2c1OCCO2
 : .	-15.9	-7.4	0.4	-1.6	i	9.7	.
- O=C(CCC1N=C2c3ccccc3N=C(SCc3ccc(F)cc3)N2C1=O)NCc1ccco1 (stereo not given)
 : -27.3	-0.3	0.5	-1.0	-0.9	i	-3.2	-11.5
- O=C(CCNS(=O)(=O)c1c(Cl)cccc1Cl)OCC(=O)c1ccccc1
 : -12.4	-0.8	-3.0	-0.7	4.9	i	-4.8	.
- CC(=O)N1N=C(c2cccnc2)OC1c1ccc(C(C)C)cc1 (stereo not given)
 : 7.7	-10.5	6.3	0.8	3.7	i	-7.0	-13.5
- COc1ccc2c(c1)C1CC(C)(NC(=O)C1C(=O)c1ccccc1)O2 (stereo not given)
 : -12.4	-4.8	-16.0	-5.9	0.4	i	-8.8	-12.6
- Fc1ccc(-c2csc(-c3cccnc3)n2)cc1F
 : -34.5	-10.8	-3.0	-4.4	-1.5	i	-10.2	-23.4
- CCOC(=O)c1c(O)c2ccccc2oc1=O
 : -11.6	-7.6	4.1	-1.6	6.1	i	-8.2	-10.4
- O=C(c1cccnc1)N1N=C(C2CC2)CC1(O)C(F)(F)F (stereo not given)
 : 1.9	-3.7	0.5	-0.3	2.0	i	-33.3	6.7
- O=C(NC1CCCC1)C(c1ccccc1F)N(C(=O)c1csnn1)C1CC1 (stereo not given)
 : 10.6	-10.7	-0.2	-5.2	-1.5	.	-15.1	-3.8

Some of these compounds in order of length of the SMILES, ascending.
Below each compound – Env fusion inh	eIF4H FP inh	PABP polyA inh	MT1-MMP act inh	MT1-MMP act inh RFP	Rce1 inh	CSC inhib	UUG fidelity
- Fc1ccc(-c2csc(-c3cccnc3)n2)cc1F
 : -34.5	-10.8	-3.0	-4.4	-1.5	i	-10.2	-23.4
- COc1ccc(S(=O)(=O)CCC(=O)N2c3ccccc3CC2C)cc1 (stereo not given)
 : .	-6.8	-5.1	-1.1	-0.7	i	3.3	6.3
- Cc1nc2scc(C)n2c(=O)c1S(=O)(=O)N1CCN(c2ccccn2)CC1
 : 7.0	-1.8	-7.4	2.7	3.8	i	0.1	-1.6

Next entries.
Below each compound – Env fusion inh	eIF4H FP inh	PABP polyA inh	MT1-MMP act inh	MT1-MMP act inh RFP	Rce1 inh	CSC inhib	UUG fidelity
- Cc1cnc(NC(=O)CSc2nnc(-c3ccncc3)n2C2CCCCC2)s1
 : -23.8	-1.1	2.7	3.3	7.4	i	-2.9	-1.2
- COc1ccc(CNc2nc(SC)n[nH]2)cc1OC
 : .	-8.8	-8.9	-0.4	-0.5	i	.	-0.9
- CCOC(=O)c1c2n(c3ccc(O)cc13)CCCCC2
 : .	-0.5	5.3	7.9	1.5	i	1.1	-5.2
- O=C(CON=C1c2ccccc2-c2ccccc21)NC12CC3CC(CC(C3)C1)C2
 : 16.3	5.2	-1.3	-24.4	-10.5	i	178.9*	-21.5
- C[C@@H]1CN([C@H](C)CO)C(=O)CCCn2nncc2CO[C@@H]1CN(C)S(=O)(=O)c1cccc(F)c1
 : 21.5	.	.	-0.7	0.8	.	.	-0.5&1.7
- COc1ccc(OC)c(NC(=O)CN(Cc2ccc(Cl)cc2)S(C)(=O)=O)c1
 : 1.8	0.8	1.9	-1.6	3.7	i	-2.6	.
- COc1ccc(C(=O)Oc2ccc(C)cc2)cc1S(=O)(=O)N1CCOCC1
 : -5.8	.	.	2.1	3.9	.	.	7.6
- COc1cc(C(=O)NNC(=O)c2ccc3c(c2)OCCO3)cc(OC)c1OC
 : -7.5	.	.	-5.0	0.8	.	-13.8	-7.7
